VDR inh: Inhibitors of the vitamin D receptor (VDR): qHTS; 400,000 tested, 0.93% active; Potency, µM, for the others: max response, negative = inhibition, most hits filed as inhibitors; Vitamin D3 receptor (Homo sapiens), P11473; VDR-SRC2-3 peptide fluorescence polarization, 2 h; active = well fitted inhibition curve with a large enough effect; inconclusive = small, poorly fitted or top-dose-only effect, or another doubt; inactive = no such curve, though single readings can be large or run the other way; also: series mostly up to about 120 µM
Target sequence (P11473 whole entry, looked up): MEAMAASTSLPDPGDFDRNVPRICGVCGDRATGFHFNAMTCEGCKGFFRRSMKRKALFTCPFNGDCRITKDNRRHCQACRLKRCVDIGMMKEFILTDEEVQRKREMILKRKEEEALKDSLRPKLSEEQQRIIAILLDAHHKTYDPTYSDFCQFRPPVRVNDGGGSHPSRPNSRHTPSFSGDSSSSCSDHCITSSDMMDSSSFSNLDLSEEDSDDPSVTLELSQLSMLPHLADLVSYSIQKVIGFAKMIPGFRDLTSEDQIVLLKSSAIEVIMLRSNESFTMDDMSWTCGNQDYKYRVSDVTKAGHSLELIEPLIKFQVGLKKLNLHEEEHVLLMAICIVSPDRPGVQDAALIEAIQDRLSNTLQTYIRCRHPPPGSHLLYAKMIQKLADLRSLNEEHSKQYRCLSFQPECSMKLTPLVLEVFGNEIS
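Reagent solutions, kept cold and dark, are dispensed first; compounds are then pinned in at 23 nl, plates briefly spun, and incubated 2 h at ambient temperature. Inhibition of VDR–SRC2-3 peptide binding is read by fluorescence polarization.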
Numbers without * were called inactive; ? = inconclusive; [ ] = remark or other dose. % is scaled to controls: 0 for no effect and ±100 for the full control effect; potency is read from the fitted curve at half-maximal effect.

SMILES	VDR inh
O=C(CN1CCN(Cc2ccccc2Cl)CC1)N/N=C/C=C/c1ccccc1[N+](=O)[O-]	-9%
CCC(C)NC(=O)c1cn(-c2cccc(OC)c2)c(=O)c2ccccc12 (stereo not given)	3%
Cc1ccc(COc2ccsc2-c2n[nH]c(=S)n2C)cc1	-13%
Cc1ccccc1NS(=O)(=O)c1ccc(C(=O)NCC(c2ccco2)N(C)C)cc1 (stereo not given)	-16%
Cc1ccc(CNC(=O)C2CCCN(c3nc4ccccc4n4cccc34)C2)cc1 (stereo not given)	-12%
CC(=O)c1sc(NC(=O)COc2ccc(C)c(C)c2)nc1C	7%
CCOc1cc(C2C(C#N)=C(N)Oc3n[nH]c(-c4ccccc4)c32)ccc1O (stereo not given)	-8%
Cc1cc2c(C)ccc(C)c2nc1SCC(=O)c1cccs1	14%
Nn1cnnc1SCC(=O)Nc1ccc(C2CCCCC2)cc1	24%
CC(C)NC(=O)CSc1cn(CC(=O)N2CCCCCC2)c2ccccc12	1%
Cc1ccc(S(=O)(=O)N[C@H](C(=O)OCC(=O)NC(=O)Nc2ccc3c(c2)OCCO3)C(C)C)cc1	-5%
Cc1ccc(Cc2nc(-c3ccccn3)no2)cc1	5%
CC(C)(C)OC(=O)N/N=C/c1ccc(Br)cc1	-11%
COc1ccc(/C=C2\Sc3ccc(C(=O)NCCCN4CCCC4)cc3N(C)C2=O)cc1OC	4%
Cc1cc(N(C)N)nc(NC(=O)NS(=O)(=O)c2ccccc2Cl)n1	-6%
CCN(CC(=O)Nc1c(F)cccc1F)C(=O)c1cccc(S(=O)(=O)N2CCCc3ccccc32)c1	3%
C/C=C/c1ccc(OCCCNC(C)CC)c(OC)c1 (stereo not given)	-13%
CC(C)C[C@@H](CN)NC(=O)c1nc[nH]c1C(=O)N[C@@H](C)C(=O)CNC[C@H](C)NC(=O)c1nc[nH]c1C(=O)N[C@@H](C)C(=O)O	?
COc1cc2c(cc1OC)C1C(=O)c3ccc4c(c3OC1CO2)C=CC(C)(C)O4 (stereo not given)	-11%
COc1ccc(Br)cc1CC1C(=O)Nc2ccccc21 (stereo not given)	0%
COCCCn1cnnc1SCc1nc2sc(C(C)=O)c(C)c2c(=O)[nH]1	-6%
COCCC(=O)N1CCC(Oc2ccc(C(=O)N(C)C(C)c3ccon3)cc2)CC1 (stereo not given)	-25%
COCCn1nnnc1C(C(C)C)N1CCOCC1 (stereo not given)	4%
CCOc1ccc(C(=O)N/N=C/c2ccc(SC)cc2)cc1	-11%
CC(C(=O)Nc1ccc(S(=O)(=O)N2CCOCC2)cc1)N(c1ccccc1)S(C)(=O)=O (stereo not given)	5%
O=C(CSc1nnc(-c2cccnc2)n1-c1ccc(SC(F)F)cc1)N1CCCc2ccccc21	-3%
Cn1cc(/C=C/C(=O)N2CCCC(C(=O)c3ccc(C(C)(C)C)cc3)C2)cn1 (stereo not given)	10%
COc1ccc(C(=O)OC2CCN(C)CC2)cc1	-6%
N#CC1(NC(=O)COC(=O)C2CCN(S(=O)(=O)c3ccc4c(c3)OCCO4)CC2)CCCCC1	-8%
O=C(c1ccccc1Cl)N(C(=O)c1ccccc1Cl)c1nccc(-c2cccs2)n1	1%
CSCC[C@H](NC(=O)OCc1ccccc1)C(=O)O	4%
CCOc1ccc(N(CC(=O)N2CCCCCC2)S(=O)(=O)c2ccc(C)cc2)cc1	-14%
CC(C)(C)c1ccc(OCC(=O)N(c2ccccn2)C2CCCCC2)cc1	-1%
CC(=O)c1cccc(Nc2ncnc3c2cnn3-c2cccc(Cl)c2)c1	12%
COC(=O)c1cc(NC(=O)c2ccoc2C)cc(C(=O)OC)c1	33%[activator]
Cc1ccc(CNC(=O)CCS(=O)(=O)c2ccc3c(c2)NC(=O)CS3)cc1	-15%
CC(C)CC(=O)Nc1ccnn1C1CCN(C(=O)c2ccccc2F)CC1	-11%
Nc1nc2ccc([N+](=O)[O-])c(N)c2s1	-14%
CCOc1cc(C(=S)N2CCN(C)CC2)ccc1OCC(=O)N1CCOCC1	-27%
CN1CCCN(Cc2nc(-c3cccc(C(F)(F)F)c3)no2)CC1	-6%

Reprinted at random: two records from the list.
SMILES	VDR inh
COC(=O)c1cc(NC(=O)c2ccoc2C)cc(C(=O)OC)c1	33%[activator]
COCCn1nnnc1C(C(C)C)N1CCOCC1 (stereo not given)	4%

Further results follow.
SMILES	VDR inh
COc1ccc(NC(=O)N(C)C[C@H]2Oc3c(NS(=O)(=O)c4ccc(F)cc4)cccc3C(=O)N([C@H](C)CO)C[C@@H]2C)cc1	-3%
COc1ccccc1CNC(=O)c1cc(C(=O)CC(C)C)c[nH]1	3%
Cc1ccc(C2C(C#N)=C(N)Oc3n[nH]c(C)c32)cc1 (stereo not given)	-4%
CCn1c(SCC(=O)c2ccc3c(c2)Cc2ccccc2-3)nnc1-c1ccc(N)cc1	-12%
Nc1nonc1C(=Nc1ccccc1)NO	-12%
O=C(CNC(=O)c1ccncc1)N/N=C/c1ccc(Br)cc1	-4%
COc1ccc([C@H]2CC(=O)C=C(c3cccc(OC)c3OC)C2)cc1OC	-16%
CC(=O)NC(=S)Nc1cc(C(F)(F)F)ccc1N1CCOCC1	-27%
COc1cccc(/C=C/C(=O)c2ccc(NS(=O)(=O)c3ccc(C)cc3)cc2)c1	?
COc1ccc(/C=N/NC(=O)c2nnn(-c3nonc3N)c2CN(C)c2ccccc2)cc1	-5%
CC(C)c1ccc(N(C(=O)C(F)(F)F)C(C(=O)NC2CCCCC2)c2ccncc2)cc1 (stereo not given)	-1%
COC(=O)c1cccc(NC(=O)Cn2cnc3ccccc3c2=O)c1	5%
O=C(c1ccncc1)N1CCN(S(=O)(=O)c2ccc(F)cc2)CC1	-1%
CN(c1ccc(C(=O)Nc2ccc3c(c2)OCO3)cc1)S(C)(=O)=O	-17%
COc1ccc(CCN2CC(C(=O)NCCCn3nc(C)cc3C)CCC2=O)cc1 (stereo not given)	19%
CCOC(=O)c1ccc(NC(=O)c2c(NCc3ccccc3)[nH]c(=O)[nH]c2=O)cc1	-15%
Cc1sc(NC(=O)/C=C/c2ccc3c(c2)OCO3)nc1-c1ccccc1	2%
CCOC(=O)c1c(NC(=O)CCC(=O)O)sc2c1CCCCC2	?
CC(NC(=O)c1cccc(S(=O)(=O)N(C)c2ccccc2)c1)c1cccnc1 (stereo not given)	0%
CCOC(=O)c1ccc(NC(=O)CCc2nc(-c3ccc(C)cc3)no2)cc1	-3%

Some of these compounds in order of the VDR inh value, falling:
SMILES	VDR inh
CC(C)(C)c1ccc(OCC(=O)N(c2ccccn2)C2CCCCC2)cc1	-1%
Cc1ccc(S(=O)(=O)N[C@H](C(=O)OCC(=O)NC(=O)Nc2ccc3c(c2)OCCO3)C(C)C)cc1	-5%
O=C(CN1CCN(Cc2ccccc2Cl)CC1)N/N=C/C=C/c1ccccc1[N+](=O)[O-]	-9%
Cc1ccc(CNC(=O)CCS(=O)(=O)c2ccc3c(c2)NC(=O)CS3)cc1	-15%

Next records.
SMILES	VDR inh
Cc1nn(C)cc1CN(C)C(=O)c1nn2c(c1Cl)NC(c1cccs1)CC2C(F)(F)F (stereo not given)	4%
CCOc1ccc(C(=O)N2CCN(S(=O)(=O)c3cccs3)CC2)c(OCC)c1	-11%
CCN(CC)C(=O)CSCC(=O)Nc1ccccc1	3%
COc1ccc([C@H]2/C=C\CN(C(=O)C3CC3)[C@@H](C)C(=O)N2Cc2ccc(F)cc2)cc1	-6%
COc1ccc(NC(=O)CSc2nnc(C)n2C2CC2)cc1S(=O)(=O)N1CCOCC1	11%
CN(C(=O)CSc1n[nH]c(N)n1)C1CCCCC1	-4%
C(=N\Nc1ccccc1)/c1nc2ccccc2s1	-4%
CCc1cc(-c2[nH]ncc2-c2ccc(OC)cc2)c(O)cc1O	-7%
COc1ccccc1CNC(=O)CN1N=C(c2ccccc2)CCC1=O	-1%
CS(=O)(=O)c1ccc2nc(NC(=O)c3ccc(=O)[nH]c3)sc2c1	14%
N#Cc1c(N)nc2c(c1-c1ccccc1)CCCC2	-2%
CSc1nc(Oc2ccc(C)cc2)cc(C(F)(F)F)n1	22%
CCOc1ccc2oc(-c3ccccc3)c(C(=O)N(C)C)c2c1	15%
COc1ccccc1Cn1c(C)nc2ccccc21	-17%
COc1cc(-c2nc3ccc(Cl)cn3c2Nc2ccc3c(c2)OCO3)ccc1O	-14%
Cc1ccsc1/C=N/NC(=O)CNC(=O)c1ccco1	13%
CCOc1ccc(NC(=O)C2CCN(C(=O)N3CC(C)Oc4ccc(Cl)cc43)CC2)cc1 (stereo not given)	-1%
Nc1ccc2oc(-c3cccc(Br)c3)nc2c1	2%
O=C(Cc1ccc(-n2c(=S)[nH]c3ccccc3c2=O)cc1)N1CCN(c2ccccc2)CC1	7%
CCOc1ccc(-n2c(SCC(=O)Nc3cc(C(=O)O)ccc3Cl)nc3ccccc3c2=O)cc1	-9%
Cc1cc(S(=O)(=O)NC[C@H]2O[C@@H](n3cnc4c(N)ncnc43)[C@H](O)[C@@H]2O)c(C)s1	-7%
Cc1ccc(CCN2C(=O)c3ccccc3C2C(=O)NCc2cccnc2)cc1 (stereo not given)	-5%
COc1ccccc1NC(=O)N1CCCC1C(=O)NCc1ccccc1F (stereo not given)	-1%
CCOc1ccccc1NC(=O)CSc1ccccc1	-15%
O=C(Nc1ccc(Cl)c(-c2nc3cc(Cl)ccc3o2)c1)c1cc([N+](=O)[O-])ccc1N1CCOCC1	10%
COC(=O)c1ccccc1S(=O)(=O)N1CCC(C(=O)NCc2ccco2)CC1	6%
CS(=O)(=O)N1c2ccccc2[C@]2([C@@]34C[C@H]5C(=O)N[C@@H](Cc6ccccc6)C(=O)N5[C@@H]3N(S(C)(=O)=O)c3ccccc34)C[C@H]3C(=O)N[C@@H](Cc4ccccc4)C(=O)N3[C@H]12	-21%
Cc1ccc2nc(NC(=O)CSc3nc(=O)n(CCCN(C)C)c4c3CCC4)sc2c1	-3%
O=C(O)c1cccnc1SCc1cccc(Br)c1	-5%
Cc1cc(C)c2c(CC(=O)Nc3ccccc3C(F)(F)F)coc2c1	3%
CN1CCN(CC(=O)Nc2cc(N(C)C)nc3ccccc23)CC1	-4%
CNc1ccc(Cl)nn1	3%
Cc1nn(CC(=O)NCc2ccc(OC(C)C)cc2)c(=O)c2cc(-c3ccccc3)nn12	9%
C/C(=N\NC(=O)CNC(=O)c1cccs1)c1ccc(Cl)c(Cl)c1	-4%
Cc1cnc(C(=O)NC2CC(C)(C)Cc3c2cnn3-c2cccc(F)c2)cn1 (stereo not given)	-2%
Cc1ccccc1N1CC2=C(C1=O)C(c1ccccc1)NC(=O)N2C (stereo not given)	3%
COC(=O)c1c(N2C(=O)Nc3ccccc3N2O)sc2c1CCCC2	-23%
CC(=O)Nc1ccc(NC(=O)C(Cc2ccccc2)NS(=O)(=O)c2ccc3c(c2)oc(=O)n3C)cc1 (stereo not given)	-2%
COc1ccc(-n2c(C)csc2=S)cc1	-4%
O=C(Nc1cccc(-c2nc3cc(Cl)ccc3o2)c1)c1cc([N+](=O)[O-])ccc1N1CCOCC1	-2%

6 of the compounds above, bar-delimited:
molecule | VDR inh
CS(=O)(=O)N1c2ccccc2[C@]2([C@@]34C[C@H]5C(=O)N[C@@H](Cc6ccccc6)C(=O)N5[C@@H]3N(S(C)(=O)=O)c3ccccc34)C[C@H]3C(=O)N[C@@H](Cc4ccccc4)C(=O)N3[C@H]12 | -21%
Cc1ccc2nc(NC(=O)CSc3nc(=O)n(CCCN(C)C)c4c3CCC4)sc2c1 | -3%
O=C(O)c1cccnc1SCc1cccc(Br)c1 | -5%
Cc1cc(C)c2c(CC(=O)Nc3ccccc3C(F)(F)F)coc2c1 | 3%
CN1CCN(CC(=O)Nc2cc(N(C)C)nc3ccccc23)CC1 | -4%
CNc1ccc(Cl)nn1 | 3%

New compounds follow:
SMILES	VDR inh
CCOCCn1c(CN2CCc3ccccc3C2)nc2c1c(=O)n(C)c(=O)n2C	-5%
C=C[C@]1(C)Cc2occ(C)c2C[C@H]1C(=C)C(=O)O	?
Cc1ccc2cc(CCNC(=O)c3ccc(Br)o3)c(=O)[nH]c2c1	4%
c1ccc(-c2nc(-c3nccc4ccccc34)oc2-c2ccccc2)cc1	-9%
COc1ccc(-c2csc(N3C(=O)C4C5c6ccccc6C(c6ccccc65)[C@@H]4C3=O)n2)cc1 (stereo not given in full)	-10%
CCOC(=O)CSc1nc2ccccc2c(=O)n1-c1cccc(C)c1	15%
Cc1noc(C)c1COC(=O)CCCOc1ccc(Cl)cc1Cl	-5%
OCC1(CO)COC(CCc2ccccc2)=N1	-26%
O=C(CC(c1ccccc1)C1CCCCC1=O)c1ccccc1 (stereo not given)	-24%
O=C(Nc1ccc(-c2nc3cccnc3s2)cc1)c1ccc(Br)o1	-9%
CCOc1nc(CC)nc(NC(=O)NS(=O)(=O)c2ccccc2Cl)n1	32%[activator]
CCn1c(O)c(N=NC(=O)c2ccc(CSc3nncn3C)cc2)c2ccccc21	-25%
O=C(CN1CCN(S(=O)(=O)c2ccc3ccccc3c2)CC1)N1CCc2ccccc2C1	18%
Cc1ccc(S(=O)(=O)NCC(=O)OC(C)C(=O)NCc2ccc3c(c2)OCO3)cc1 (stereo not given)	6%
O=C(Nc1cccc(C(F)(F)F)c1)c1ccc(Cn2cc(Br)cn2)o1	1%
COc1cccc(-n2ccnc2SCC(=O)Nc2cc(OC)ccc2OC)c1	23%
O=C(Cc1ccc(F)cc1)NC(Cc1c[nH]c2ccccc12)C(=O)O (stereo not given)	10%
O=C(NC(=S)Nc1ncccn1)c1ccc(F)cc1	2%
O=C(/C(=C/O)N=Nc1ccccc1)c1ccco1	10%
CC(=O)Nc1ccc(S(=O)(=O)NCCC(=O)NC2CCCCCC2)cc1	3%
COc1ccc(N2CC(C(=O)N[C@@H](CC(C)C)C(=O)NC3CCCC3)CC2=O)cc1 (stereo not given in full)	-2%
CC(=O)OC(C(=O)NCS(=O)(=O)c1ccc(C)cc1)c1cccnc1 (stereo not given)	5%
CCN(Cc1ccccc1OC)CC1CCCN(CCc2cccc(OC)c2)C1 (stereo not given)	-13%
O=c1c2sccc2n(Cc2cc(=O)n3cc(Cl)ccc3n2)c(=O)n1-c1ccccc1	6%

From PubChem

Only part of the results is shown; count on the stated rates, not on these rows.
